Rango-impB inh: qHTS Assay for Inhibitors of Rango (Ran-regulated importin-beta cargo) - Importin beta complex formation; Rango CFP/YFP FRET sensor + importin beta, 45 min; actives 0.031% (n = 340,000); Potency, µM (top dose mostly 92.2 µM), without a hit: at the top dose inhibition of complex formation; Importin subunit beta-1 (Homo sapiens), Q14974; active = rising FRET ratio curve, often small or poorly fitted; inconclusive = mostly compound fluorescence or quenching in the first reads; inactive = flat curves in all reads;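 note: potency is the fitted concentration of half-maximal effect; 0% = DMSO wells and 100% = buffer wells lacking importin beta; nearly all actives have a fitted effect of over 15% in size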
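FRET biosensor Rango (snurportin 1 IBB between N-terminal EYFP and C-terminal Cerulean), 50 nM in PBS/1 mM DTT/0.02% Tween-20/0.1% BSA, preincubated 5 min RT with compound; 0.125 microM importin beta added, 45 min RT, CFP/YFP FRET ratio read.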
miR-21 FLuc: qHTS Assay for Modulators of miRNAs and/orActivators of miR-21. HeLa miR-21 FLuc reporter, luciferase, 48 h. Potency, µM (doses to about 38.3 µM), for inactives: top-dose reporter change, positive = more light. 340,000 tested, under 10 active; active = well fitted rising curve with a large enough effect; inconclusive = small, poorly fitted or top-dose-only effect; inactive = no such curve, though single readings can be large or run the other way;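 note: % of control where 0% means no effect; miR-21 action dims this reporter so a rising signal means less miR-21 action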
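Using DMEM plus 10% FBS, HeLa miR-21-FLuc cells are incubated with test compounds (final up to about 40uM) for 48 hours; firefly luciferase signal is then imaged following reagent-mediated lysis.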
Rango dissoc inh: qHTS Assay for Inhibitors of RanGTP induced Rango (Ran-regulated importin-beta cargo) - Importin beta complex dissociation; Snurportin-1 (Homo sapiens) + GTP-binding nuclear protein Ran (Homo sapiens) + Importin …; Biochemical FRET Rango-importin beta, RanGTP-induced dissociation; Potency, µM (highest dose often 46.1 µM), for the others: at the top dose activity change, negative = inhibition; actives 0.071% (n = 340,000); AID 540253, 2011; active means falling FRET ratio curve, often poorly fitted, with flat reads before Ran was added; inconclusive means other falling curves, or compound fluorescence or quenching; inactive means flat or rising ratio curve;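 note: potency is the fitted concentration of half-maximal effect; % of control where 0% means no effect; nearly all actives have a fitted effect of over 45% in size; -100% = wells without RanGTP and RCC1; the record marks most hits as doubtful in a second field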
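Recombinant Rango FRET biosensor (EYFP–snurportin 1 IBB–cerulean CFP10) at 0.1 uM premixed with 0.25 uM importin beta in PBS, 1 mM DTT, 0.02% Tween-20, 0.1% BSA. Compound added 5 min; RanGTP-RCC1 (0.6 uM Ran, 2 mM GTP, 0.2 uM RCC1) then triggers release, read at 45 min.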
GLA inh pH 4.5: qHTS Assay for Inhibitors of Human alpha-Galactosidase at pH 4.5; purified enzyme, 4-MU-alpha-Gal fluorescence, pH 4.5; AID 1467, 2008; activity change, negative = inhibition, % at 105 µM; Alpha-galactosidase A (Homo sapiens), P06280; 230,000 tested, under 10 active; inconclusive = small, poorly fitted or top-dose-only inhibition, or a rising curve; inactive = flat fitted curve, though single readings scatter; no compound was filed as active;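 note: 0% = full activity with enzyme and -100% = basal without enzyme; dose as in the result columns while the protocol names 77 µM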
Target sequence (P06280 whole entry, looked up): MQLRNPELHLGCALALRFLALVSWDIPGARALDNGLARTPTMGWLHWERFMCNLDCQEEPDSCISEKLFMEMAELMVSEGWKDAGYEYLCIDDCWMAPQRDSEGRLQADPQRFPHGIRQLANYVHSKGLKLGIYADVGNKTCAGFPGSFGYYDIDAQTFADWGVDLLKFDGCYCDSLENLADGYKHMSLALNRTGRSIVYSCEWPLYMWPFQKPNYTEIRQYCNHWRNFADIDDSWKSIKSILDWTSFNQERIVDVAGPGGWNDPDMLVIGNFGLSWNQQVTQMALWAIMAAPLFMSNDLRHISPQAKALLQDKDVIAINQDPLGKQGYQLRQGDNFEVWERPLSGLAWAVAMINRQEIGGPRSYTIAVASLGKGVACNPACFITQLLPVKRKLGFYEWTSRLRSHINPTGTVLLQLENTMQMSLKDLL
* = called active by the depositor; u = inconclusive; x = not tested or not shown. Not all compounds are listed (hit frequency here may not be typical).

SMILES	Rango-impB inh	miR-21 FLuc	Rango dissoc inh	GLA inh pH 4.5
CCCCCC(=O)Nc1ncc2c(n1)CC(c1cccs1)CC2=O (centres undefined)	u	-7%	-21%	-17
CC1(C)CC(=O)c2cn3nc(C(F)(F)F)nc3nc2C1	0.7%	1%	1%	-2
CCCNC(=O)C(Cc1ccccc1)NS(=O)(=O)c1ccc2c(c1)CCC(=O)N2 (centres undefined)	-0.1%	-3%	6%	-7
CC(CCc1ccccc1)NC(=O)c1ccc(-n2cncn2)c([N+](=O)[O-])c1 (centres undefined)	0.4%	x	-8%	x
CCOc1cc(C(=O)Nc2ccc([N+](=O)[O-])cn2)cc(OCC)c1OCC	1.0%	-3%	17%	-6
Cc1ccc(OCC(=O)N2CCN(C(=O)c3cccnc3)CC2)cc1	1.0%	-5%	8%	-2
Cc1c(Cl)cnc(NC(=O)COC(=O)CCc2nc3ccccc3s2)c1Cl	-1.0%	-2%	7%	1
Cc1ccc(S(=O)(=O)c2nc(-c3ccco3)oc2SCC(=O)NCC2CCCO2)cc1 (centres undefined)	-5.0%	-8%	-9%	0
Oc1ccccc1Cc1c(O)ccc2ccccc12	-0.6%	x	23%	x
COc1ccc(OC)c(N(CC(=O)NCC2CCCO2)S(=O)(=O)c2ccccc2)c1 (centres undefined)	u	0%	-1%	x
COc1ccc(-n2nnnc2SCC(=O)N2CCCC2=O)cc1	-1.6%	x	28%	x
Clc1ccc(CCNc2nc3ccccc3n3nnnc23)cc1	2.5%	-1%	0%	4
Cc1ccc(NC(=O)c2cccnc2)cc1S(=O)(=O)N(C)C	1.3%	0%	21%	0
Cc1ccc(-n2c(SCC(=O)N/N=C/c3ccccc3OCC(=O)O)nc3ccccc3c2=O)cc1	4.5%	-2%	4%	1
COc1cc(/C=N/NC(=O)C2CCN(CC(O)COCc3ccccc3)CC2)cc(OC)c1OC (centres undefined)	0.7%	-1%	-9%	-1
CCOc1cc(CNCC(C)C)c(Cl)cc1OCC(=O)Nc1ccccc1	-1.2%	-5%	-5%	-5
CCc1cc2c(-c3ccccc3)cc(=O)oc2c(CN2CCOCC2)c1O	u	-22%	u	6
NS(=O)(=O)c1ccc(CCNCc2cc(Br)ccc2OCc2ccccc2)cc1	-0.6%	18%	1%	-11
COc1ccc(N(CC(=O)Nc2cc(C)ccc2C)S(=O)(=O)c2c(C)noc2C)cc1	9.5%	14%	22%	x
Cc1cc(C(F)(F)F)nn1Cc1n[nH]c(=S)n1Cc1ccccc1	-0.8%	-5%	-1%	3
N/C(COc1ccccc1)=N\NC(=O)c1cccnc1Oc1ccccc1	-1.4%	1%	1%	7
CCOC(=O)c1cnc2cc(-c3ccc(C)cc3)nn2c1-c1ccccc1	-0.6%	-11%	1%	5
COc1ccccc1CNC(=O)[C@H](C)NC(=O)C1CCN(C(=O)[C@@H](N)Cc2ccccc2)CC1	1.2%	-2%	0%	x
COc1ccc(/C=N\NC(=O)c2ccc(F)cc2)cc1COc1ccccc1C(N)=O	u	-4%	13%	x
O=C(Nc1ccccc1C(=O)O)c1cc(S(=O)(=O)Nc2ccccc2)ccc1Cl	-0.6%	8%	-3%	x
C/C(=N\NC(=O)c1nnn(-c2nonc2N)c1-c1ccc2c(c1)OCO2)c1ccccc1	4.5%	-8%	9%	x
CCOC(=O)CC1C(=O)NCCN1S(=O)(=O)c1ccccc1 (centres undefined)	4.1%	-3%	0%	4
Cc1ccc(N2C(=O)c3ccccc3C2C(=O)c2ccc(O)cc2O)cc1 (centres undefined)	u	1%	-6%	-20
Cc1ccc(C)c(S(=O)(=O)N2CCCOC2CNC(=O)C(=O)NCc2ccncc2)c1 (centres undefined)	-0.2%	-3%	4%	4
COc1ccccc1C(=O)NCCc1nc2ccccc2n1C	-0.7%	-18%	-11%	-9

Ordered by value in miR-21 FLuc (ascending): some entries from above
SMILES	Rango-impB inh	miR-21 FLuc	Rango dissoc inh	GLA inh pH 4.5
CCc1cc2c(-c3ccccc3)cc(=O)oc2c(CN2CCOCC2)c1O	u	-22%	u	6
CCOC(=O)c1cnc2cc(-c3ccc(C)cc3)nn2c1-c1ccccc1	-0.6%	-11%	1%	5
Cc1ccc(N2C(=O)c3ccccc3C2C(=O)c2ccc(O)cc2O)cc1 (centres undefined)	u	1%	-6%	-20

New compounds follow:
SMILES	Rango-impB inh	miR-21 FLuc	Rango dissoc inh	GLA inh pH 4.5
O=C(Nc1ccnn1C1CCN(C(=O)CCc2ccc(F)cc2)CC1)C1CCOC1 (centres undefined)	6.2%	-1%	1%	x
N#Cc1ccc(C(=O)NN2C(=O)NC3(CCCCC3)C2=O)cc1	0.0%	x	-3%	x
CCOc1ccc(C(=O)n2cnnc2N)cc1	6.7%	2%	0%	8
Cc1cc(C)cc(N(C(=O)Cn2nnc3ccccc32)C(C(=O)NCc2ccco2)c2ccncc2)c1 (centres undefined)	-0.4%	-9%	14%	-5
OC(COc1cc(Cl)c(Cl)cc1Cl)CN1CCN(c2ncccn2)CC1 (centres undefined)	0.0%	-11%	3%	0
NS(=O)(=O)c1ccc(CCNC(=O)C2CCCCC2)cc1	-7.0%	1%	-2%	1
O=C(N/N=C\c1ccc(F)cc1)c1ccc(F)cc1	-0.5%	-40%	10%	0
COc1cccc(CCNC(=O)c2cc(COc3c(F)cccc3F)on2)c1	3.7%	-5%	-19%	x
COc1ccc(C(=O)NCCS(=O)(=O)N2CCc3ccccc3C2)cc1OC	-1.2%	x	8%	x
COC(=O)c1ccc(CNC(=O)c2ccc3c(c2)NC(=O)CS3)cc1	3.6%	x	-24%	x
COc1ccc(Cl)cc1NC(=S)NCCN1CCOCC1	1.1%	-2%	22%	11
O=C(CCc1ccccn1)N1CCCC(Nc2cccc(F)c2)C1 (centres undefined)	-1.7%	1%	13%	x
COc1ccc(NC(=O)c2ccc3c(=O)n4c(nc3c2)CCCCC4)cc1	0.7%	-12%	2%	x
O=C(O/N=C1\CCCc2ccccc21)c1cccc(Cl)c1	-1.4%	2%	-10%	6
CC1(C)CC(NC(=O)C23CCC(C)(C(=O)C2)C3(C)C)CC(C)(C)N1 (centres undefined)	3.2%	-3%	-7%	4
Cc1ccc(C(=O)C(C)OC(=O)CCN=C2NS(=O)(=O)c3ccccc32)cc1 (centres undefined)	0.4%	x	25%	x
CCC(C)C1Nc2ccc(C(=O)NCc3ccc4c(c3)OCO4)cc2NC1=O (centres undefined)	0.6%	14%	-2%	x
O=C(NCCCN1CCN(c2cccc(Cl)c2)CC1)C1(S(=O)(=O)c2ccc(Cl)cc2)CC1	1.2%	21%	-1%	3
Cc1oc2ccc(O)cc2c1C(=O)c1ccc(Cl)cc1	1.3%	-18%	5%	-5
CC(=O)c1c(C)[nH]c(C(=O)COc2ccc3c(C)cc(=O)oc3c2)c1C	0.2%	x	-1%	x
COc1ccc(CCNCc2cc3ccc(C)cc3[nH]c2=O)cc1OC	0.0%	3%	1%	x
CC1Cc2ccccc2N1C(=O)CO/N=C/c1ccc(OC(F)F)cc1 (centres undefined)	5.7%	2%	3%	0
COC(=O)c1cccc(/C=N/NC(N)=S)c1O	u	7%	u	5
O=S(=O)(Nn1cnnc1)c1ccccc1Cl	-1.0%	-4%	-14%	-5
O=c1[nH]c(O)c(C=Nc2ccc(Cl)cc2Cl)c(=O)[nH]1	0.1%	-1%	-6%	-7
COc1ccc(S(=O)(=O)N2CCC(C(=O)NCc3ccccn3)CC2)cc1C	-0.2%	-3%	-10%	2
CCC(C(=O)NC1CCCC1)N(C(=O)Cn1nnc(-c2ccc(OC)c(OC)c2)n1)c1cccc(O)c1 (centres undefined)	0.0%	-10%	-5%	x
Cc1cccc(CN2CCN(C(=O)c3cccc4ccccc34)CC2)c1	0.8%	1%	0%	x
Clc1ccc2[nH]c3c(c2c1)CNCC3	u	0%	-20%	x
NS(=O)(=O)c1ccc(NC(=O)CCC(=O)c2ccc(Cl)s2)cc1	0.3%	-3%	8%	x
CCN(CCCNC(=O)c1cn(CC)c2ccc(S(=O)(=O)N(C)C)cc2c1=O)c1cccc(C)c1	-1.2%	-4%	0%	-12
CC(Sc1nnc(Nc2ccccc2)s1)C(=O)Nc1nc(-c2ccccc2)cs1 (centres undefined)	-0.6%	16%	2%	-1
COc1ccc(C(=O)NC(=S)NNC(=O)c2c(-c3ccccc3)noc2C)cc1	2.5%	u	8%	-10
CCc1ccc(Nc2ccc(S(=O)(=O)N3CCOCC3)cc2[N+](=O)[O-])cc1	-0.8%	-2%	4%	2
Cc1cccc(NC(=O)C2CCCN2S(=O)(=O)c2ccc(F)cc2)c1C (centres undefined)	-0.1%	-1%	1%	-8
O=C(Nc1ccc(N2CCN(C(=O)c3ccco3)CC2)cc1)c1ccc2c(c1)OCO2	2.3%	11%	11%	-5
COc1ccc(S(=O)(=O)NCCC(=O)OCC(=O)c2ccc[nH]2)cc1[N+](=O)[O-]	8.1%	x	-16%	x
CC(C)[C@H](NC(=O)OCc1ccccc1)C(=O)OCc1cc(=O)oc2cc(O)ccc12	u	1%	u	x
CC(C)=CCN1CCN(Cc2nc(C(C)C)cs2)CC1CCO (centres undefined)	-0.8%	1%	7%	11
O=C(Cc1ccc(Br)cc1)NNC(=O)c1cccs1	1.8%	x	-16%	x
CCN1C(=O)/C(=C2\C=Cc3ccccc3N2CC)OC1=S	5.3%	x	-15%	x
CCOc1cc(/C=C2\N=C(C)OC2=O)cc(Br)c1OCC(=O)OC	3.1%	0%	1%	-9
Cc1ccc(S(=O)(=O)NCCC(=O)N2CCCCCCC2)cc1C	2.3%	x	4%	x
COc1ccc(-c2c(-c3cc(OC)c(OC)c(OC)c3)noc2C)cn1	-2.6%	4%	-2%	x
O=C(CCCSc1nc(-c2ccco2)cc(C(F)(F)F)n1)NCC1CCCO1 (centres undefined)	-4.3%	-1%	10%	0

Single records (already shown).
O=C(Nc1ccc(N2CCN(C(=O)c3ccco3)CC2)cc1)c1ccc2c(c1)OCO2 is listed as Rango-impB inh: 2.3%; miR-21 FLuc: 11%; Rango dissoc inh: 11%; GLA inh pH 4.5: -5
CC(C)[C@H](NC(=O)OCc1ccccc1)C(=O)OCc1cc(=O)oc2cc(O)ccc12 is listed as Rango-impB inh: u; miR-21 FLuc: 1%; Rango dissoc inh: u; GLA inh pH 4.5: x
O=C(CCCSc1nc(-c2ccco2)cc(C(F)(F)F)n1)NCC1CCCO1 (centres undefined) is listed as Rango-impB inh: -4.3%; miR-21 FLuc: -1%; Rango dissoc inh: 10%; GLA inh pH 4.5: 0

(listing goes on)
SMILES	Rango-impB inh	miR-21 FLuc	Rango dissoc inh	GLA inh pH 4.5
CCOC(=O)c1ccc(-n2c(C)ccc2C)cc1	-3.7%	-7%	u	4
O=C(CN1C(=O)NC2(CCc3ccccc32)C1=O)Nc1ccccc1Cl (centres undefined)	-0.5%	x	-2%	x
CC1CN(C(=O)c2cc(S(=O)(=O)N(C)c3ccc(F)cc3)ccc2Cl)CC(C)O1 (centres undefined)	-0.5%	20%	12%	x
COc1ccc(S(N)(=O)=O)cc1C(=O)N(C)CC(=O)Nc1ccc(N2CCOCC2)cc1	0.7%	5%	19%	x
O=c1[nH]c2ccsc2c(=O)n1CCO	-0.7%	-2%	-10%	1
O=C(NCC1CCCO1)c1cccc(S(=O)(=O)N2CCCCC2)c1 (centres undefined)	5.0%	x	2%	x
CCC(C)(C)c1ccc(Oc2cccc(C(=O)O)c2)cc1	1.2%	-39%	19%	-14
Cc1cc(C)nc(-n2nc(C)c(Oc3ccccc3O)c2C)n1	2.0%	-15%	-4%	-3
c1ccc(-c2nnc(CN3CCCCC3)o2)cc1	-0.3%	-50%	17%	x
CCN(CC)CCNC(=O)c1ccc(N2CCCCC2)c(NS(=O)(=O)c2ccc(C)cc2)c1	0.5%	21%	-18%	-4
CCc1cccc(CC)c1NC(=S)/C(=C(\[O-])c1ccc(Cl)s1)[n+]1ccccc1	3.1%	-1%	-7%	-3
CC1CCCCN1C(=O)Cn1cnc2cc([N+](=O)[O-])ccc2c1=O (centres undefined)	u	-2%	-6%	1
